TRPML1 ag: human mucolipin-1 channel agonism; AID 624414; activation, % (test concentration not listed); Q9GZU1; TRPML1-expressing cells, Ca2+ dye fluorescence, FDSS; host cell line not named in the record; reference of the full effect not given here; 410,000 compounds, 0.12% hits; in the data active = activation above about 50%; inconclusive = about 30% to 50%; inactive = below about 30%; further: 0% is about no effect; the text of the record puts the active cut at 80%
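Kinetic FDSS Ca2+ read in Tet-induced TRPML1-DL cells (ABD Ca8 dye plus quencher, 45-90 min RT loading): baseline, then compound, then 110 s agonist window; EC80 agonist 54-4 at 4uM final added afterwards for a 110 s antagonist window.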
D2 ag: agonists of human D2 dopamine receptor (beta-arrestin); DiscoveRx PathHunter D2 beta-arrestin, luminescence, 90 min; 100% = 57 uM dopamine signal; activation, % (test concentration not listed); 360,000 compounds, 0.084% hits; AID 624465; in the data active = activation above about 40%; inconclusive = about 15% to 40%; inactive = below about 15%; further: compound concentration not given in the record; the text of the record calls up to 30% inactive
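Agonist mode: compounds alone added to overnight-plated D2 PathHunter cells for 90 min at 37 C, with 57 uM final dopamine (EC100) defining full response. Beta-arrestin recruitment detected by chemiluminescent reagent, read after 1 h at ambient temperature.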
CtBP-E1A blk: blocks the CtBP interaction with E1A | AlphaScreen GST-E1A/His-CtBP binding, 1536-well; active compounds read low; control for the full effect not named in the record | activity change, % (no concentration beside the values) | 340,000 compounds, 0.49% hits; in the data active means activity change below about -65%; inconclusive means about -30% to -65%; inactive means above about -30%; further: on the % scale 0 is the no-effect control and ±100 the full control effect
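In 5 uL wells, 23 nL compound meets equimolar GST-E1A and His-CtBP (5X stock 125 nM each) for 2 h, 37 °C. Beads (5X, 50 ug/mL) then 1 h, 37 °C, dark.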
TRPML1 blocker: inhibitors of human TRPML1 channel. AID 624415. Q9GZU1. 390,000 compounds, 0.02% hits. TRPML1-inducible cells, Ca2+ dye fluorescence, FDSS; active compounds read low; inhibition of EC80 agonist-evoked calcium signal. activity change, negative = inhibition, % (concentration not given with the values); in the data active means activity change below about -50%; inconclusive means about -30% to -50%; inactive means above about -30%;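 further: stimulus is agonist 54-4 at its EC80 concentration; on the % scale 0 is the no-effect control and ±100 the full control effect; the text of the record puts the active cut at -80%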
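Calcium fluorescence in TRPML1-DL cells induced overnight with Tet: a 110 s read after compound pin addition, then a 110 s antagonist read after challenge with 54-4 at 4 uM final (EC80).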
PINK1 modulator: modulators of PINK1 expression | PINK1 immunofluorescence, high-content cytometry, 24 h | Potency, µM (highest dose often 76.6 µM), without a hit: at the highest dose activation (PINK1 increase), usual class: activators | 410,000 compounds, 0.2% hits; active = well fitted activation curve with a large enough effect; inconclusive = small, poorly fitted or top-dose-only effect; inactive = flat fitted curve, though single readings scatter; cell line not stated here;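 further: potency means the concentration at half of the fitted maximal effect; % of control where 0% means no effect; nearly all actives have a fitted effect of over 65% in size; a mitochondrial uncoupler was the plate control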
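A stable cell line was treated with compounds at 5 concentrations for 24 hours, with CCCP as control. PINK1 levels and mitochondrial localization were measured by immunofluorescence with mitochondrial, cell and nuclear markers after fixation, read by laser-scanning cytometry.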
Six1-Eya2 inh: inhibitors of human Six1/Eya2 interaction | Q15475+O00167 | 360,000 compounds, 0.56% hits | AID 651725 | AlphaScreen GST-Six1/His-Eya2 binding, biochemical; active compounds read low; control for the full effect not named in the record | activity change, % (concentration not given with the values); in the data active = activity change below about -65%; inconclusive = about -30% to -65%; inactive = above about -30%; further: on the % scale 0 is the no-effect control and ±100 the full control effect
Target sequence (O00167 whole entry, looked up): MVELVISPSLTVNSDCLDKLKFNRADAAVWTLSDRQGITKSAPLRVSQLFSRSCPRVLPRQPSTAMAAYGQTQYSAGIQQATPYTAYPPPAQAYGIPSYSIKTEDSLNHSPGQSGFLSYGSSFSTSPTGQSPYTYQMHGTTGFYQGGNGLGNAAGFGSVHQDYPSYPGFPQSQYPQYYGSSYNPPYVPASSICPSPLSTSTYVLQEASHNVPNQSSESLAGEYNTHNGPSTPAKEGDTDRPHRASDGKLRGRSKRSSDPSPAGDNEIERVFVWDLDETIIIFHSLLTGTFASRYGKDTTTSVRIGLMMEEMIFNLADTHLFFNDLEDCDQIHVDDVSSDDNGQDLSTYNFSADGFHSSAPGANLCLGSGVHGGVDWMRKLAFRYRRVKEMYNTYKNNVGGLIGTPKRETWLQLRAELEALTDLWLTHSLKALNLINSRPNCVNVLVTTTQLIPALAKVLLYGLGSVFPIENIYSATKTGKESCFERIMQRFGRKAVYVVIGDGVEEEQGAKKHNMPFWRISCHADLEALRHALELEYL
Target sequence (Q15475 whole entry, looked up): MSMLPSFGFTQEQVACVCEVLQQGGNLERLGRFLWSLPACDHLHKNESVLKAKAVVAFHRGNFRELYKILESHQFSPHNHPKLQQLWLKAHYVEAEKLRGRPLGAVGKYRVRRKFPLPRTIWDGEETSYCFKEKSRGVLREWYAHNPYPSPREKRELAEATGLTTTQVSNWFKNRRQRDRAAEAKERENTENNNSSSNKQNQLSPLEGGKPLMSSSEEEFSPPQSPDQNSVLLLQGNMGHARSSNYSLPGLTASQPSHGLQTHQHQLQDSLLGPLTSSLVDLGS
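Six1/Eya2 binding was read as AlphaScreen signal after compounds were pinned into GST-Six1 plus His-tagged Eya2 (5X stock 250/500 nM) in pH 8.0 Tris/NaCl/TCEP buffer, beads added, then incubated 1 h, 37 C, dark.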
Numbers without * were called inactive; u = inconclusive; x = not tested or not shown; [ ] = another dose, or the depositor's remark.

mol | TRPML1 ag | D2 ag | CtBP-E1A blk | TRPML1 blocker | PINK1 modulator | Six1-Eya2 inh
CC1(C)Oc2ccc3ccc(=O)oc3c2C(/C=N/O)=C1Cl | 0.1 | -1.6 | 2 | 16 | 0.5% | 7
COc1cc(NS(=O)(=O)c2ccc(NC(=O)CN3C(=O)c4ccccc4C3=O)cc2)ncn1 | 0.3 | -1.7 | 12 | 11 | 0.7% | -1
CCOC(=O)C1CCCN(C(=O)c2cc3c(=O)[nH]c4ccc(C)cc4c3s2)C1 (stereo unspecified) | -1.1 | x | x | 3 | 0.4% | x
O=C(O)CSc1nnc(-c2cc3ccccc3o2)n1-c1ccccc1 | 1.5 | -1.9 | 5 | 6 | -0.3% | 5
CCCc1nnc(NC(=O)C(=O)NCCN(C)C)s1 | -0.1 | 0.6 | 5 | 6 | 1.8% | -1
COc1ccc(C2=NOC(C(=O)NCc3ccc(F)cc3)C2)cc1 (stereo unspecified) | -0.4 | -2.3 | 14 | 14 | 4.0% | 8
COc1ccc(OC)c(NC(=O)C(CCS(C)(=O)=O)NC(C)=O)c1 (stereo unspecified) | -0.1 | 1.3 | 7 | 5 | 14%[38.3 µM] | 2
COc1ccc(CCNC(=O)CN2C(=O)COc3ccc(S(=O)(=O)N4CCOCC4)cc32)c(OC)c1 | -0.7 | -0.9 | 12 | -1 | 0.2% | 0
CCOC(=O)C1=C(CC)OC(N)=C(C#N)C1c1ccc(OC)cc1OC (stereo unspecified) | 2.7 | -4.6 | -1 | -3 | -1.6% | -1
Cc1ccc(S(=O)(=O)N(C)CC(=O)N2CCc3ccccc32)cc1 | 0.5 | -5.5 | 17 | 5 | 2.0% | -3
CCC(C)NC(=O)CC(NS(=O)(=O)c1ccc(C)cc1)c1ccc(OC)cc1 (stereo unspecified) | 0.6 | -1.5 | 8 | 2 | 0.3% | 2
COc1ccccc1CNC(=O)c1cccs1 | 0.0 | -1.8 | -8 | 9 | 2.1% | 5
COc1ccccc1Nc1nnc(Cc2ccccc2)c(=O)[nH]1 | 0.3 | -3.0 | 5 | -13 | 1.5% | 1
COc1cccc2cc(C(=O)NCc3ccc(Cl)cc3)c(=N)oc12 | -0.3 | -3.5 | 8 | 7 | 5.5% | 12
O=C(CN1C(=O)NC2(CCCCC2)C1=O)Nc1cc(C(F)(F)F)ccc1N1CCCCC1 | 1.5 | 0.6 | 7 | 20 | 13% | 3

3 entries out of the list above, arranged by the value under TRPML1 blocker, rising.
canonical_smiles | TRPML1 blocker
COc1ccc(CCNC(=O)CN2C(=O)COc3ccc(S(=O)(=O)N4CCOCC4)cc32)c(OC)c1 | -1
COc1ccc(OC)c(NC(=O)C(CCS(C)(=O)=O)NC(C)=O)c1 (stereo unspecified) | 5
CCCc1nnc(NC(=O)C(=O)NCCN(C)C)s1 | 6

(listing goes on)
mol | TRPML1 ag | D2 ag | CtBP-E1A blk | TRPML1 blocker | PINK1 modulator | Six1-Eya2 inh
CC1=CCC(C(=O)O)C(C(=O)O)C1 (stereo unspecified) | 0.0 | -2.6 | 4 | 8 | -1.5% | 1
Cn1cccc1Cc1nnc(SCC(=O)NCc2ccco2)n1CCc1ccccc1 | -0.2 | 1.5 | -16 | 5 | -5.6%[38.3 µM] | -18
COc1ccc(OC)c(C2C(C(=O)Nc3ccc(F)cc3)=C(C)Nc3nc(CCCO)nn32)c1 (stereo unspecified) | 0.8 | -2.7 | -2 | 2 | -1.3% | 1
CCc1ccc(NC(=O)CN2C(=O)C3(SCC(=O)N3c3ccc(F)c(F)c3)c3ccccc32)cc1 (stereo unspecified) | 3.4 | x | x | -13 | -5.2% | x
CCN(c1ccccc1)S(=O)(=O)c1cc(C(=O)NCC(c2ccc(OC)cc2)N(C)C)ccc1C (stereo unspecified) | 1.9 | 3.1 | -11 | 34 | -0.6% | -15
CN(CCOc1ccccc1)C(=S)Nc1ccc(OC(F)F)cc1 | 1.2 | 2.5 | 3 | 13 | 1.4% | 0
O=C(CSc1nc(C2CC2)nc2ccccc12)Nc1cccc(O)c1 | 0.3 | 4.7 | 25 | 8 | u | 13
O=S(=O)(Nc1ccc(S(=O)(=O)N2CCOCC2)cc1)c1ccccc1 | -0.1 | -1.6 | 5 | -3 | -1.7% | 2
Cc1cn(C2OC(COC(=O)c3ccccc3)C(O)C2O)c(=O)[nH]c1=O (stereo unspecified) | -0.2 | -2.3 | -8 | -12 | x | -9
CCc1noc(C)c1C(=O)Nc1cccc(S(=O)(=O)N(C)c2ccccc2)c1 | -0.7 | -5.0 | 14 | 2 | u | 2
CCOC(=O)N1CCN(CC(O)COc2ccc(-c3ccccc3)cc2)CC1 (stereo unspecified) | -1.1 | 13 | 3 | 0 | -1.1% | -1
Cc1ccc(-c2csc(NCCc3nc4cc(Cl)c(Cl)cc4n3CCOCCO)n2)cc1 | -0.1 | -0.3 | x | -16 | -0.4% | -6
CCCn1c(CCC(=O)O)ccc1-c1ccc(F)cc1 | -0.1 | -2.7 | -11 | 1 | x | -4
Cn1cnc(S(=O)(=O)N2CCCCC2c2cc(C(=O)Nc3ccccc3Cl)no2)c1 (stereo unspecified) | 0.6 | 1.1 | 3 | -3 | 1.2% | 3
Cc1cc(C)c(C#N)c(Nc2ccccc2)n1 | -0.5 | -0.4 | -6 | -2 | -5.9%[38.3 µM] | -5

(further entries)
mol | TRPML1 ag | D2 ag | CtBP-E1A blk | TRPML1 blocker | PINK1 modulator | Six1-Eya2 inh
O=c1cc(CN2CCCCCCC2)c2c(ccc3ccccc32)o1 | -0.6 | 0.9 | 3 | x | 2.4% | -6
CC(=O)Nc1nc(COc2ccccc2)cs1 | -0.8 | -0.8 | 2 | 1 | 6.6%[38.3 µM] | 7
COc1ccc(-c2cccc(-c3cc(=O)oc4cc(OC)cc(OC)c34)c2)cc1 | 1.3 | -1.7 | 0 | -7 | 4.7% | -2
CC1CCCCN1C(=O)c1cc(F)c(F)cc1Cl (stereo unspecified) | -0.6 | -2.0 | 5 | 7 | 0.3% | 5
CC1=Nc2cc(C(=O)N3CCCC3)ccc2Sc2ccc(C)cc21 | 1.0 | -5.6 | x | 7 | -1.2% | 2
CCOC(=O)C1=C[C@@H](C(C)(C)C)N(S(=O)(=O)c2ccc(C)cc2)[C@H]1c1ccc(C#N)cc1 | 1.0 | -6.0 | 10 | 12 | 0.9% | 4
COC(=O)c1ccc(NC(=O)c2cc(-c3ccncc3)nc3ccccc23)cc1 | -0.7 | 3.4 | 0 | 5 | 8.5% | -3
O=C(Cn1c(SCc2ccc(F)cc2)nc2cccnc21)Nc1ccccc1F | -0.7 | x | x | -12 | 1.4% | x
CC(Sc1nnc(C2CC2)n1C1CC1)C(=O)Nc1cccc(S(=O)(=O)N2CCOCC2)c1 (stereo unspecified) | 5.0 | 13 | 2 | -15 | 1.7% | -3
N=C1/C(=C\c2ccc(OC(=O)c3ccccc3Cl)cc2)C(=O)N=C2SC(N3CCOCC3)=NN12 | -0.2 | -3.8 | x | 7 | 1.7% | u
COc1ccc(OCCCSc2ncccn2)cc1 | 0.7 | -1.4 | 5 | -15 | 0.2% | 10
COC(=O)c1ccccc1NC(=O)c1ccco1 | 0.3 | 0.9 | 0 | 18 | 0.7% | 5
N#Cc1c(N2CCSCC2)nsc1-c1ccccc1Cl | 3.9 | 7.6 | 14 | 11 | -1.0% | 13
c1ccc(CNc2nnnn2-c2ccccc2)cc1 | 0.0 | 0.5 | 3 | 4 | 3.8% | 6
CSc1ccccc1NC(=S)Nc1ccc(S(N)(=O)=O)cc1 | 0.4 | -1.1 | 0 | -1 | -0.8% | 6

Additional compounds:
mol | TRPML1 ag | D2 ag | CtBP-E1A blk | TRPML1 blocker | PINK1 modulator | Six1-Eya2 inh
CCn1c2ccccc2c2cc(CN3CCN(Cc4ccc(Br)cc4)CC3)ccc21 | 0.7 | x | x | 5 | 9.9% | x
Cc1noc(NS(=O)(=O)c2ccc(NC(=O)C(CC(C)C)N3C(=O)c4ccccc4C3=O)cc2)c1C (stereo unspecified) | -0.8 | -11 | 5 | -14 | 1.1% | -4
Cc1cccc(C)c1-n1nnnc1C(c1cccs1)N1CCN(C/C=C/c2ccccc2)CC1 (stereo unspecified) | 0.0 | -4.8 | -9 | x | -0.4% | -20
O=c1[nH]c(SCCOc2ccccc2F)nc2ccccc12 | 1.1 | -0.8 | -1 | 11 | 0.6% | u
CCOC(=O)c1oc2ccccc2c1NC(=O)c1cccc(OC)c1 | 0.6 | -2.4 | 32 | 21 | 1.8%[38.3 µM] | 25
CN1CCN(c2ccc(Cl)cc2NC(=O)c2ccc(=O)n(C)n2)CC1 | 0.1 | 0.7 | -1 | -2 | -2.6% | -2
COC(=O)c1cc(NC(=O)Cn2ncc3c2-c2ccccc2OC3)cc(C(=O)OC)c1 | 0.2 | x | x | 9 | 6.2% | x
Cc1ccc(CSC2=Nc3ccccc3C3=NC(CC(=O)NCc4cccs4)C(=O)N23)cc1 (stereo unspecified) | 3.2 | x | x | 19 | -1.2% | x
Cc1ccc2c(c1)N(C(=O)CCC(=O)NCCN1CCOCC1)CC(C)O2 (stereo unspecified) | -0.5 | 1.4 | 2 | 11 | 0.3% | -2
CCN(CC)CCN(Cc1cc2cc(C)c(C)cc2[nH]c1=O)C(=S)NCc1ccco1 | -0.2 | -0.7 | -17 | 4 | -0.6% | -16
Cc1oc2cc(O)cc(C)c2c(=O)c1-c1cnn(-c2ccccc2)c1 | 2.0 | 4.8 | u | 36 | 27% | u
COc1ccc(S(=O)(=O)n2nc(-c3ccc(Cl)cc3)cc2N)cc1 | 2.4 | 0.6 | -1 | 35 | 4.9% | -2
COc1ccc(CNC(=O)[C@H](C)NC(=O)C2CC(=O)N(c3ccc(OC)cc3)C2)cc1 (stereo partly specified) | 0.3 | -0.3 | 1 | 1 | -0.5% | 3
Cc1ccc(NC(=O)CSc2nc(=O)n(CCCN(C)C)c3c2CCC3)c(C)c1 | -0.5 | -0.3 | -17 | 15 | -0.3% | 0
O=C(CSc1nccn1-c1ccccc1)Nc1nc2ccccc2s1 | 2.5 | x | x | 38 | -2.4% | x

(next part)
mol | TRPML1 ag | D2 ag | CtBP-E1A blk | TRPML1 blocker | PINK1 modulator | Six1-Eya2 inh
O=C(COc1ccccc1Cl)Nc1ccc(CN2CCCCC2)cc1 | 7.4 | -2.6 | -16 | -6 | -1.6% | 0
CC(C)(C)c1ccc(-c2nn(CCC#N)cc2/C=N/O)cc1 | 1.5 | -3.6 | x | 21 | 2.2% | 30
COc1ccc(N2C(=O)CS/C2=N\C(=S)Nc2ccccc2)cc1 | -0.6 | -2.7 | -2 | -7 | 9.6% | -15
CCOC(=O)Cc1csc(NC(=O)COc2ccc3c(c2)CCC3)n1 | 1.4 | -0.9 | 6 | -7 | 2.8% | -1
CNc1c(NS(=O)(=O)c2ccc3c(c2)CCCC3)c(=O)oc2ccccc12 | 1.7 | 7.9 | -1 | -12 | 0.4% | -8

Screening data (PubChem BioAssay)
